Resorufin autofl: compounds fluorescent in resorufin spectral region. max dye-equivalent concentration, M. Compound fluorescence, resorufin region 547/598 nm, buffer; active compounds read high. 59,000 tested, 0.04% active; active = above 10 nM dye equivalent; inconclusive = 1 to 10 nM; inactive = 1 nM or less; a few of its hits are not listed in these tables; note: highest value over a series up to 38 µM
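Intrinsic fluorescence profiled in the resorufin window (ex 547 nm, em 598 nm) after 15 min at room temperature in pH 8.0 Tris buffer (100 mM); responses normalized against a six-point resorufin standard series as dye-equivalent concentration.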
TSHR agonist: agonists of human thyroid stimulating hormone receptor; P16473; HEK293-CNG-TSHR cells (CNG channel as cAMP sensor), membrane potential dye, cAMP; Potency, µM (titrated, usually from 57.1 µM), for the others: top-dose activation, most hits filed as activators; 73,000 tested, 0.48% active; active = well fitted activation curve of enough size with the parental cells flat; inconclusive = any curve in the parental cells; inactive = parental cells flat and receptor cells flat or falling; note: potency is the fitted concentration of half-maximal effect; % of control where 0% means no effect; weak receptor curves with flat parental cells got no call and are not listed
Target sequence (P16473 whole entry, looked up): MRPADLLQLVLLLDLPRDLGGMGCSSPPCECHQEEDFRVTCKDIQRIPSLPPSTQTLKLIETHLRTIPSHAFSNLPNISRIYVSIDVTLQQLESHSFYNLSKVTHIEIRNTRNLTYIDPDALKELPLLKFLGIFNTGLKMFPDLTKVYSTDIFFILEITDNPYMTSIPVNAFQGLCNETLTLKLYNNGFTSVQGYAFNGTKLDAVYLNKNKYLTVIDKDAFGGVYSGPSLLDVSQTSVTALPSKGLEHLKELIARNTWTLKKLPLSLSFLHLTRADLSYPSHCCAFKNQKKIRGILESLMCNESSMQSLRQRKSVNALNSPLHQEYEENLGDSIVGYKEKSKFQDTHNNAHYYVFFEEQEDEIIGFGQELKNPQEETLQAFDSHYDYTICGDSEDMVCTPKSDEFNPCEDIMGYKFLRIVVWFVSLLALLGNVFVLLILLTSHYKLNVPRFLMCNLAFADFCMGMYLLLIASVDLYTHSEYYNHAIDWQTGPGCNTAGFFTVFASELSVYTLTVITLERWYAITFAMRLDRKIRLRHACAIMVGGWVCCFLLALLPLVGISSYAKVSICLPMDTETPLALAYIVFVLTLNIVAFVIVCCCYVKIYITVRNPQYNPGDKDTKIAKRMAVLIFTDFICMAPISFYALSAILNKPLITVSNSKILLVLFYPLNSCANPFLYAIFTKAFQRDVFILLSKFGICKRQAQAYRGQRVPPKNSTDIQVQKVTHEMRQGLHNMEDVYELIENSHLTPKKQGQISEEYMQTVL
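HEK 293 cells stably expressing TSHR and a cAMP-gated CNG channel; parental CNG-only cells as counterscreen. Cells preloaded 60 min with membrane potential dye plus 100 uM RO 20-1724, then compound 30 min; fluorescence read at 590 nm.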
A488 autofl: compound autofluorescence in A488 spectral region; compound autofluorescence, A488 spectral region, dye equivalency; active compounds read high; max dye equivalency, M; 59,000 tested, 0.1% active; active = above 10 nM dye equivalent; inconclusive = 1 to 10 nM; inactive = 1 nM or less; about half of its hits are not listed in these tables;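 note: highest value over a series up to 38 µM; compound alone in buffer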
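Spectroscopic profiling in the A488 region: compounds in pH 8.0 Tris (100 mM), 15 min RT, CCD imaging with 480 nm excitation and 540 nm emission; responses normalized against A488 dye standards.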
A647 autofl: compound autofluorescence in A647 spectral region; AID 592; max dye-equivalent concentration, M; Compound fluorescence, A647 channel (570/671 nm), Tris buffer; 59,000 tested, under 10 active; active means above 1 µM dye equivalent; inconclusive means 0.1 to 1 µM; inactive means 0.1 µM or less;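 note: values scaled relative to a standard on each plate; highest value over a series up to 38 µM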
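Tris 100 mM pH 8.0; cpd + A647 stds pin-transferred; 15 min RT; CCD imager, ex 570/em 671. Output = A647-equivalent conc. per cpd conc.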
AID923: qHTS Assay for Allosteric/Competitive Inhibitors of Caspase-1: Spectroscopic Profiling in AFC Spectral Region. compound fluorescence, AFC spectral region (405/520 nm); almost no hit is shown here. Potency, µM (top dose mostly 57.5 µM), for inactives: at the top dose fluorescence increase, hits mostly activators. 75,000 tested, 1.1% active. AID 923, 2007; active = well fitted activation curve with a large enough effect; inconclusive = small, poorly fitted or top-dose-only effect;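 note: potency is the fitted concentration of half-maximal effect; 0% is about no effect; scaled to a free AFC standard on each plate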
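Baseline compound fluorescence (AFC region, 405 nm ex/520 nm em) taken from the intercept of kinetic reads with 50 nM caspase-1 and 5 uM Ac-WEHD-AFC; normalized to an on-plate AFC standard curve; compounds titrated up to 57 uM.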
* marks the source's active call; other numbers are inactive results; i = inactive; ? = inconclusive; . = not tested or not shown; & = joins results of further samples; [ ] = dose if it differs, or a comment.

SMILES | Resorufin autofl | TSHR agonist | A488 autofl | A647 autofl | AID923
CCOC(=O)c1c(/N=C/N(C)C)sc(C(=O)OC)c1C | i | ? | i | 4.7e-09 | -1.2%
COCc1cc(=O)n2[nH]c(SC)nc2n1 | i | -7% | i | 3.2e-08 | -1.1%
O=c1c2cnn(-c3ccccc3)c2ncn1Cc1cccc(Cl)c1 | . | 6% | . | . | 0.2%
COCCn1c(SCC(=O)Nc2ccc(S(=O)(=O)N3CCOCC3)cc2)nc2ccccc21 | i | ? | i | 3.9e-08 | -0.8%
Cc1ccc(-n2nnnc2SCC(=O)NC(=O)Nc2ccc3c(c2)OCCO3)cc1 | i | ? | i | 6.4e-08 | -1.4%
O=C(Nc1ccccc1-c1nc2ccccc2o1)c1ccc2c(c1)OCCO2 | i | 1% | i | 1e-09 | 2.4%
O=C(C1CCCO1)N1CCN(c2ncccn2)CC1 (stereo not given) | i | . | i | 1e-09 | -2.0%
Cc1nc2n(n1)CC(O)CS2 (stereo not given) | i | 1% | i | 1e-09 | 0.0%
Nc1ccc2c(c1)N1CCN=C1S2 | i | . | i | 3.5e-08 | .
O=C(Cn1c(=O)oc2cc(S(=O)(=O)N3CCCC3)ccc21)N1CCN(c2ccccn2)CC1 | . | -1% | . | . | 2.9%
CN(C)c1ncc2nc(-c3cc(F)cc(F)c3)c(=O)n(Cc3cccs3)c2n1 | i | ? | i | 2.1e-08 | -1.8%
Cc1noc(C(=O)Nc2sc3c(c2C#N)CCC3)c1Cl | . | -1% | . | . | 15%
COc1cc(-c2c(C#N)c(N)nc(SCc3ccncc3)c2C#N)cc(OC)c1OC | i | 9% | i | 1.6e-08 | 0.4%
O=C(Nc1ccc(Oc2ccc(Cl)cc2)cc1)c1ncn[nH]1 | i | 2% | i | 6.4e-09 | -1.3%
CC1CCCCN1CCNC(=O)CN1C(=O)COc2ccccc21 (stereo not given) | i | 1% | i | 1.6e-08 | 0.8%
O=C(Nc1cccc(F)c1)N1CC2(CCN(C(=O)c3cc(C(F)(F)F)cc(C(F)(F)F)c3)CC2)C1 | i | 6% | i | 1.3e-08 | -2.3%
O=C1CN(C(=O)c2ccc(Br)o2)C(c2ccc(F)cc2)c2cc(F)ccc2N1 (stereo not given) | i | 18% | i | 5.7e-09 | 0.6%
CCCSCCCNC(=O)Cn1cc2c(n1)CCC(C)C2 (stereo not given) | . | 16% | . | . | -1.5%
O=C(Nc1ccc(N2CCOCC2)cc1)C1(S(=O)(=O)c2ccccc2)CC1 | . | -2% | . | . | -3.0%
CCN1C(C)=C(C(=O)OC)C(c2ccccc2)N2C(=O)[C@@]3(C(=O)OC)O[C@@]12C1C(=O)N(C)C(=O)C13 (stereo not given in full) | . | 1%[11.4 µM] | . | . | 3.4%[11.5 µM]
COC(=O)c1ccc(C2C(C(C)=O)=C(C)Nc3ncnn32)cc1 (stereo not given) | . | -1% | . | . | 3.6%
CCCn1c(=N)n(CC(=O)c2ccco2)c2ccccc21 | i | 13% | i | 1e-09 | -0.5%
COc1ccc(OC)c(NC(=O)c2ccc(NS(=O)(=O)c3c(C)noc3C)cc2)c1 | i | -1% | i | 1e-09 | -0.2%
O=C(c1ccncc1)N1CCN(C(=O)c2cccs2)CC1 | i | 0% | i | 6.2e-09 | 1.2%
CNC(=O)[C@@H]1C[C@H]1[C@@H](NC(=O)OCc1ccccc1)c1ccccc1 | . | -3% | . | . | -1.4%

The list goes on.
SMILES | Resorufin autofl | TSHR agonist | A488 autofl | A647 autofl | AID923
COc1ccc(Cl)c(N2CCN(CCCNC(=O)Nc3ccc(C)cc3)CC2)c1 | i | -12% | i | 1e-09 | 0.2%
COc1cc2cc(C(c3nnnn3C3CCCC3)N(C)C3CCCCC3)c(=O)[nH]c2cc1OC (stereo not given) | i | ? | i | 1e-09 | 2.6%
N#Cc1cccc(NC(=O)CSc2ccccc2)c1 | i | 2% | i | 2.7e-08 | -1.9%
CCCCCNc1c(C(=O)OCC)c(=O)[nH]c2ccccc12 | i | . | i | 1e-09 | -1.5%
CCN(CC)CCCNC(=O)C1CCN(C(=O)c2cc3sccc3n2Cc2ccc(F)cc2)CC1 | i | 7% | i | 7.5e-09 | -0.8%
COc1ccccc1NC(=O)Cn1cnc2sc(C(=O)NCc3ccco3)c(C)c2c1=O | i | 0%[11.4 µM] | i | 5.9e-09 | 1.3%
O=C1CC(N2CCC(c3nc4ccccc4o3)CC2)C(=O)N1Cc1cccs1 (stereo not given) | i | -5% | i | 1e-09 | 0.0%
CCCNS(=O)(=O)c1ccc(OCC(=O)N2CCC(C(=O)OCC)CC2)cc1 | i | 3% | i | 8.6e-09 | 0.2%
CCOc1ccccc1N1CSC2=C(C#N)C(c3c(OC)ccc4ccccc34)CC(=O)N2C1 (stereo not given) | . | 2% | . | . | 1.9%
COCCn1c(SCc2ccccc2Cl)nc2c1c(=O)[nH]c(=O)n2C | i | 9% | i | 1.7e-08 | -1.8%
COc1ccc(NC(=O)N2CCN(c3cccc(C(F)(F)F)c3)CC2)cc1 | i | 6% | i | 1e-09 | 0.3%
CCOc1ccccc1Nc1nc2ccccc2n2cnnc12 | . | 23% | . | . | -5.5%
Cn1c(=O)[nH]c(=O)c2c1nc(Sc1nc3ccccc3s1)n2Cc1ccccc1 | i | 13% | i | 9.4e-09 | 1.9%
CCCCOc1ccc(C2CC(=O)N(C)C2=O)cc1 (stereo not given) | i | . | i | 4.3e-09 | .
Cc1cc(C)c2oc(=O)cc(CN3CCN(Cc4ccc5c(c4)OCO5)CC3)c2c1 | i | -45%[inhibitor] | i | 1e-09 | -0.4%
COc1ccc(-c2nn3c(-c4ccncc4)nnc3s2)cc1OC | i | 1% | i | 1.6e-08 | -1.9%
CCOC(=O)CSc1nnc(CNC(=O)c2cccs2)n1-c1ccccc1 | i | 2% | i | 2.9e-08 | 0.6%
Cc1ccc2c(CN3CCN(Cc4ccc5c(c4)OCO5)CC3)cc(=O)oc2c1C | i | ? | i | 4.1e-08 | -0.2%
CCOC(=O)N1CCC(NC(=O)C2CCCN(C(=O)c3cc4sccc4n3C)C2)CC1 (stereo not given) | . | 0% | . | . | -1.0%
CC(=O)N1CCC(N2CCN(c3ccccc3F)CC2)CC1 | . | 3% | . | . | -0.1%
CCCn1c(SCC(=O)c2cc(OC)ccc2OC)nnc1-c1ccco1 | i | ? | i | 4e-08 | 1.0%
Cn1nnnc1SCC(=O)N1c2ccccc2CCc2ccccc21 | i | 2% | i | 4.4e-08 | -0.1%
CN1/C(=C\C(=O)Nc2cccnc2)c2ccccc2CC1(C)C | i | 3% | i | 3.1e-09 | 1.5%
OC1CCN(Cc2cccc(Oc3ccccc3)c2)CC1 | . | 7%[11.4 µM] | . | . | 1.2%
COCCNC(=O)c1ccccc1NC(=O)COc1ccccc1 | i | 6% | i | 8.7e-09 | -0.4%

A few values from the list:
CCOC(=O)CSc1nnc(CNC(=O)c2cccs2)n1-c1ccccc1 | AID923 = 0.6%
CCN(CC)CCCNC(=O)C1CCN(C(=O)c2cc3sccc3n2Cc2ccc(F)cc2)CC1 | A647 autofl = 7.5e-09

For reference, three of the compounds above.
SMILES | Resorufin autofl | TSHR agonist | A488 autofl | A647 autofl | AID923
CCOC(=O)c1c(/N=C/N(C)C)sc(C(=O)OC)c1C | i | ? | i | 4.7e-09 | -1.2%
COCc1cc(=O)n2[nH]c(SC)nc2n1 | i | -7% | i | 3.2e-08 | -1.1%
O=c1c2cnn(-c3ccccc3)c2ncn1Cc1cccc(Cl)c1 | . | 6% | . | . | 0.2%

Next structures:
SMILES | Resorufin autofl | TSHR agonist | A488 autofl | A647 autofl | AID923
Cc1ccc(C)c(N2CCN(C(=O)C3CCN(S(=O)(=O)c4c(C)noc4C)CC3)CC2)c1 | i | 17% | i | 2.5e-09 | -2.1%
O=C(OCn1nnc2ccccc2c1=O)c1ccc2ccccc2n1 | i | 3% | i | 2.2e-08 | -1.2%
CC1CCc2c(sc3ncnc(SCC(=O)N4CCN(C(=O)c5ccco5)CC4)c23)C1 (stereo not given) | i | 0%[11.4 µM] | i | 1e-09 | -0.9%
O=C(CN1CCC(n2nnc3cc(F)ccc32)CC1)NC1CCCCC1 | i | ? | i | 3.1e-08 | 3.6%
CCOC(=O)c1oc2ccccc2c1NC(=O)C1CCCCC1 | i | ? | i | 3.2e-08 | 0.1%
COc1ccc2oc(C)c(NC(C)=O)c2c1 | i | 7% | i | 3.7e-09 | 2.1%
COc1ccc(C(=O)c2oc3ccc(Br)cc3c2NC(C)=O)cc1 | . | -7% | . | . | 5.6%
COC(=O)CCN(C(=O)c1ccc2c(c1)OCO2)c1ccccn1 | i | -2% | i | 3.4e-09 | 0.7%
Cc1onc(-c2ccccc2Cl)c1C(=O)Nc1ccc(OCC(=O)N2CCOCC2)cc1 | . | ? | . | . | -0.2%
CCn1cnc2cc(NCc3nc4ccccc4n3C)ccc21 | i | -13% | i | 1.2e-09 | 0.4%
CCOc1c(Br)cc(C2NS(=O)(=O)N=C3CCCCCN32)cc1OC (stereo not given) | i | 0% | i | 1e-09 | -1.0%
O=C(Nc1ccc2oc(=O)ccc2c1)c1cccnc1 | i | -2% | i | 3.6e-09 | -1.5%
O=C1C[C@@H](O)[C@@H](O)[C@H]2[C@@H]3C(=O)N(Cc4ccc5c(c4)OCO5)C(=O)[C@@H]3CC[C@H]12 | . | -4%&2%[11.4 µM] | . | . | -2.8%&-4.0%[11.5 µM]
COc1ccc(C(NC(=O)C(C)(C)C)NC(=O)C(C)(C)C)cc1 | i | -4% | i | 2.8e-08 | 0.0%
CCN1CCN(C(=O)Nc2cccc(C(F)(F)F)c2)CC1 | i | -1% | i | 1e-09 | 0.6%
CCCCC(c1nnnn1CS(=O)(=O)c1ccc(C)cc1)N1CCN(c2ccccc2)CC1 (stereo not given) | i | 2% | i | 5.8e-09 | 1.2%
COc1cccc2cc(C(=O)NC3CC(C)(C)NC(C)(C)C3)c(=O)oc12 | i | -1% | i | 1e-09 | -0.9%
CC(=O)NCCNc1ncncc1-c1ccccc1C(F)(F)F | i | ? | i | 6.7e-09 | 0.0%
CCC1CCCCN1CCCNC(=O)Cn1nc(-c2ccc(C)cc2)ccc1=O (stereo not given) | i | ? | i | 2.2e-08 | 0.4%
O=C(c1cnccn1)N1CCC2(CC1)CCN(c1ccncc1)CC2 | i | -1% | i | 2.3e-09 | -3.0%
CCNC(=O)c1sc(-c2ccccc2)nc1C | i | 3%[11.4 µM] | i | 2.4e-08 | 0.6%
CCOC(=O)C1CCCN(c2nc3ccccc3nc2C(C#N)C(=O)NCc2ccccc2)C1 (stereo not given) | i | 5% | 5e-08M* | 1e-09 | 13%
CCCCn1c(SCC(=O)c2ccc(OC)cc2OC)nc2cc(S(N)(=O)=O)ccc21 | i | 30% | i | 5.9e-09 | 2.7%
CCOc1ccc(S(=O)(=O)Nc2ccccc2C(=O)NCC2CCCO2)cc1 (stereo not given) | . | 15% | . | . | 1.7%
Cc1noc(C)c1S(=O)(=O)N(CC(=O)N1CCCC1)c1ccc(C(C)C)cc1 | . | ? | . | . | -2.0%
Cc1cc(NC(=O)COC(=O)COc2ccc(C(=O)c3ccccc3)cc2)no1 | i | -2% | i | 2.2e-08 | -0.3%
O=C(CN1CCN(c2ccc(F)cc2)CC1)N1CCC(Cc2ccccc2)CC1 | i | 3% | i | 1.2e-08 | 0.4%
COc1ccccc1N(CC(=O)Nc1ccc2c(c1)OCCO2)S(C)(=O)=O | i | . | i | 1e-09 | 1.0%
CC(=O)c1c(C)[nH]c(C(=O)OCC(=O)Nc2cc(C(F)(F)F)ccc2N2CCOCC2)c1C | i | 3% | i | 1e-09 | -0.5%
COc1cc(-c2nnc(-c3cccs3)o2)cc(OC)c1OC | i | 0% | i | 2.2e-09 | -0.2%

Not all compounds are listed; rates above refer to the full screens.
